Source: PubChem (ICCB-Longwood Screening Facility, Harvard Medical School)
BasE inh = blocks the Acinetobacter baumannii siderophore enzyme BasE. purified BasE, fluorescence polarization binding displacement. inhibition, % (no concentration beside the values). hit rate 0.1% among 84,000;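 active means both replicates above 25% with normal brightness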;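 further: 0% = negative plate control signal and 100% = positive plate control signal; stock transfer was 100 nL into about 30 µL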
LANA-nucl inh = LANA-nucleosome interaction inhibition | FITC-LANA1-23 / chicken nucleosome fluorescence polarization; stronger effect = lower value | z-score (test concentration not listed) | hit rate 0.3% among 51,000;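 active means both repeat wells score below -2 in polarization z-score versus plate sample wells, excluding overly bright wells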;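 further: 100 nL library stock added to about 30 µL; numbers are from one replicate; some results filed as inactive read as strong as hits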
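Test system: purified chicken nucleosomes with FITC-labelled LANA N-terminal peptide (1-23); Input: 240 nM purified chicken nucleosomes (480 nM peptide binding sites), final; Medium: TEN-BT buffer, pH 7.5; Timing: 10–45 min, room temperature; Technique: fluorescence polarization, 480 nm excitation, 535 nm parallel and perpendicular emission; Replication: duplicates.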
Active calls of the source: *; x = no result given; & = joins results of further samples. Only part of the results is shown (hit frequency here may not be typical).

Below each SMILES: BasE inh	LANA-nucl inh
> CC(=O)Nc1cc2c(ccc3ccccc32)oc1=O
→ 0.7	x
> CN(C)Cc1ccccc1CNC(=O)c1cc(Cl)nc(Cl)c1
→ -0.6	x
> COc1nc(N2CCCCCC2)nc(N2CCCCCC2)n1
→ -1.9	1.12
> Cc1csc(=O)n1CCN1C(=O)NC2(CCC(C)CC2)C1=O (configuration not stated)
→ 0.7	x
> O=S1(=O)CCC(NS(=O)(=O)c2ccccc2)C1 (configuration not stated)
→ 2.1	0.476
> NC(=O)COC(=O)c1cc(-c2ccccc2)c(N2CCOCC2)s1
→ -0.9	x
> CCCCn1c(=O)n(C)c(=O)c2c(C(=O)OC)cc(-c3ccccc3OC)nc21
→ 0.8	x
> Cn1nnnc1SCC(=O)c1ccc2c(c1)CCC(=O)N2
→ 3.9	x
> O=C(Cn1cc(/C=c2/sc3nc4ccccc4n3c2=O)c2ccccc21)N1CCCC1
→ 11.9	-0.526
> O=C(C1=NN(C2CCS(=O)(=O)C2)C(=O)CC1)N1CCc2ccccc21 (configuration not stated)
→ -13.4	x
> COc1ccccc1N1CCN(C(=O)c2ccc[nH]c2=S)CC1
→ 1.7	1.15
> Cc1ccc(S(=O)(=O)N2CCOCC2)c(C)c1
→ 0.4	x
> CC1CCCCC1n1c(SCc2cc(=O)n3ccsc3n2)nnc1-c1cccnc1 (configuration not stated)
→ 0.8	x
> O=c1ccc(-c2ccccc2)nn1CCN1CCCCC1
→ -0.1	-1.65
> COC(=O)c1ccc(C)c(NC(=O)CCn2[nH]c(=O)ccc2=O)c1
→ 2.3	x
> Cc1cc(C(=O)O)nn1-c1ccccc1
→ -0.9	x
> Cc1nn(-c2ccccc2)c2sc(C(=O)OCC(=O)C(C)(C)C)cc12
→ 4.8	x
> CC(N=Cc1ccccc1O)c1ccccc1 (configuration not stated)
→ 3.9	x
> COc1cc(OC)cc(OC)c1
→ -0.3&1.1	0.851
> CCN(CC)CCN1C(=O)C(=O)/C(=C(/O)c2cnn(-c3ccccc3)c2C)C1c1cccs1 (configuration not stated)
→ -1.7	1.65
> Cc1c(NC2=NC3(CCCCC3)Cc3ccccc32)c(=O)n(-c2ccccc2)n1C
→ 1.2	-0.742
> COC(=O)C1=C(C)N(Cc2ccco2)C(=O)/C1=C\c1cc(C)n(-c2ccc(OC)c(Cl)c2)c1C
→ -0.5	-0.071
> COc1ccc(CNC(=O)CN2CCNC(=O)C2)cc1OC
→ -1.2	x
> NS(=O)(=O)c1ccc(NC(=O)C(F)(F)F)cc1
→ 0.9	0.29
> CCN(CC)S(=O)(=O)c1cc2c3c(c1)c(C)cc(=O)n3CCC2
→ x	0.125
> O=C(NC1CCCCNC1=O)c1ccc(N2CCOCC2)nc1 (configuration not stated)
→ -3.1	x
> CN(C)CCN(Cc1ccccc1)C(=O)c1cc2ccc3cccnc3c2[nH]1
→ -55.3	x
> O=C(O)c1ccccc1NC(=O)c1cc2ccccc2oc1=O
→ 0.1	-0.175
> CCC(=O)Nc1ccc(C(=O)CSc2ncc(C#N)c(N)n2)cc1OC
→ -1.5	-0.245
> Cc1c(C(N)=O)nnc2cc(-c3ccccc3)nn12
→ -0.7	x

One compound at a time, as listed above. Order of values: BasE inh	LANA-nucl inh
COc1ccc(CNC(=O)CN2CCNC(=O)C2)cc1OC reads -1.2	x
O=C(Cn1cc(/C=c2/sc3nc4ccccc4n3c2=O)c2ccccc21)N1CCCC1 reads 11.9	-0.526
Cc1csc(=O)n1CCN1C(=O)NC2(CCC(C)CC2)C1=O (configuration not stated) reads 0.7	x

More structures follow:
Below each SMILES: BasE inh	LANA-nucl inh
> CCOC(=O)NC(=O)Cn1c(=O)cnc2ccccc21
→ 1.2	x
> CCn1c(O)c(/C=N/c2ncn[nH]2)c(=O)n(CC)c1=S
→ 4.6	x
> CCNC(=S)/N=C(\N)Nc1nc(C)c2cc(C)ccc2n1
→ -4.0	-1.21
> O=C(CSc1cccc[n+]1[O-])NC(=O)NC1CCCC1
→ 2.0	x
> O=C1C2C3C=CC(C3)C2C(=O)N1CCN1CCN(S(=O)(=O)c2cccs2)CC1 (configuration not stated)
→ 1.6	-0.568
> O=C1CCC(=O)N1CN(Cc1ccccc1)CN1C(=O)CCC1=O
→ 3.4	0.341
> Cc1ccc(-n2cc(C(C)(C)C)[nH]c2=S)cc1
→ 2.2	1.48
> NNc1ccc(C(F)(F)F)cn1
→ x	0.451
> Fc1ccc(-c2nnc(SCc3ncc(-c4ccccc4)o3)n2CC2CCCO2)cc1 (configuration not stated)
→ -1.5	x
> CC1CCN(C(=O)Cn2c(=O)n(Cc3ccc(F)cc3)c(=O)c3ccccc32)CC1
→ -3.2	-0.87
> CCOC(=O)c1c(NC(=O)c2nc3n(n2)C(C(F)F)CC(C)N3)sc2c1CCCC2 (configuration not stated)
→ 1.5	-0.434
> Cc1ccccc1NC(=O)C(C)c1c(C)n[nH]c1C (configuration not stated)
→ -4.5	1.97
> CCc1ccc(NC(=O)CSc2nc3c(oc4ccccc43)c(=O)n2CC)cc1
→ 0.7	-1.32
> Cc1cc(-c2ccccc2)n2ncc(C#N)c2n1
→ 0.9	-1.3
> O=C1N(Cc2ccccc2)CCCC12CCCN(Cc1ccccc1)C2=O
→ 0.0	-0.049
> c1csc(-c2nnc3n2C2(CCCC2)Cc2ccccc2-3)c1
→ 0.5	0.282
> CC(C)C(=O)Nc1ncc(Cc2ccccc2)s1
→ 0.4	1.4
> CCCN(CC(=O)Nc1ccccc1C(=O)NC1CC1)Cc1nnc(-c2ccco2)o1
→ 2.9	x
> CN(C)c1ccc(NC(=O)COC(=O)c2ccc(Br)cc2)cc1
→ 0.7	x
> O=C1CCN=C(SCC(=O)Nc2ccccc2)N1
→ -0.4	-1.26
> OCCNc1ccc(Cl)cc1
→ -1.9	0.137
> COc1ccccc1NC(=O)c1ccc(C)o1
→ 5.2	0.0805
> O=C(CCC(=O)N1CCc2ccccc21)N1CCc2ccccc21
→ 1.0	-0.272
> CCC(C)(C)C1CCC(=O)C(C2(O)C(=O)N(C)c3ccccc32)C1 (configuration not stated)
→ 0.5	0.078
> CC(OC(=O)c1cccnc1)C(=O)Nc1ccc(Br)cc1 (configuration not stated)
→ 0.3	x
> CCCCC/C=C\C/C=C\C/C=C\C=C\[C@@H](O)CCCC(=O)O
→ -0.1	-0.108
> O=S1(=O)N=C(SCCO)c2ccccc21
→ 2.8	-0.919
> NC1CCSc2ccccc21 (configuration not stated)
→ -2.1	0.061
> COC(=O)C1=C(N)n2c(s/c(=C/c3ccncc3)c2=O)=C(C(=O)OC)C1c1ccncc1 (configuration not stated)
→ 0.6	-0.449
> CCCCC(NC1CCS(=O)(=O)C1)C(=O)O (configuration not stated)
→ 1.8	-0.009

Random excerpt: 3 compounds from above
Below each SMILES: BasE inh	LANA-nucl inh
> CCc1ccc(NC(=O)CSc2nc3c(oc4ccccc43)c(=O)n2CC)cc1
→ 0.7	-1.32
> COC(=O)C1=C(C)N(Cc2ccco2)C(=O)/C1=C\c1cc(C)n(-c2ccc(OC)c(Cl)c2)c1C
→ -0.5	-0.071
> CCN(CC)S(=O)(=O)c1cc2c3c(c1)c(C)cc(=O)n3CCC2
→ x	0.125

(listing goes on)
Below each SMILES: BasE inh	LANA-nucl inh
> Cn1c(=O)oc2cc(S(=O)(=O)NC3CCCc4ccccc43)ccc21 (configuration not stated)
→ -0.9	0.327
> Cc1ccccc1NC(=O)CCC(=O)O
→ -0.4	x
> Cc1cccc(OCC(=O)NCCc2ccccn2)c1
→ 4.9	x
> CC(=O)Nc1sc(C)c(C)c1CN1CCN(S(=O)(=O)c2ccccc2)CC1
→ 0.6	x
> CCCCNC(=O)c1cn(C)c(=O)c2cc(OC)c(OC)cc12
→ 0.1	-0.377
> COc1cc(NC(=O)COn2nnc3ccc(S(C)(=O)=O)cc32)cc(OC)c1
→ -1.0	x
> Cc1cc(NCCO)n2c(nc3ccccc32)c1C#N
→ 0.4	x
> CC1(C)CC2CC(C)(CN2Cc2c(O)ccc3cc(-c4ccccn4)c(=O)oc23)C1 (configuration not stated)
→ 3.0	0.216
> CCNc1nc(N)c(C(=O)c2ccc(F)cc2)s1
→ 2.4	0.232
> Cc1cnc(C(=O)OCc2ccc(COC(=O)c3cnc(C)cn3)cc2)cn1
→ 1.7	x
> COC(=O)/C(=C(/O)CSc1nnnn1-c1ccc(O)cc1)c1nc2ccccc2[nH]1
→ 1.6	x
> Cc1ccc(NC(=S)N2CCC(Nc3nccc(C(F)(F)F)n3)CC2)c(C)c1
→ 0.2	x
> COc1ccccc1OC(=O)CN1C(=O)c2ccccc2C1=O
→ 1.4	0.719
> Cc1cc(C)c(C#N)c(SCC(=O)c2cc(C)n(C3CCS(=O)(=O)C3)c2C)n1 (configuration not stated)
→ 12.1	x
> C=CCOc1ccccc1CNc1ccc(C)cc1
→ -2.1	-0.795
> O=C(Nc1cccnc1)c1c2c(nc3ccccc13)C(=O)N(C1CCCCC1)C2
→ -1.0	0.461
> CCOC(=O)CN1C=NS(=O)(=O)c2ccccc21
→ -1.9	3.12
> NNC(=O)c1ccc2[nH]c3c(c2c1)CCCC3
→ -0.9	0.171
> Cc1ccc(CS(=O)Cc2ccc(C(=O)N3CCN(c4ccccc4)CC3)o2)cc1 (configuration not stated)
→ 0.0	-0.661
> O=C(Nc1nc(-c2ccc3c(c2)CCN3C(=O)C2CCCCC2)cs1)c1ccco1
→ -4.5	-1.41
> CCN1C(=O)NC(c2ccc(Cl)cc2)C2=C1CCCC2=O (configuration not stated)
→ 3.1	x
> CS(=O)(=O)NCCS(=O)(=O)N1CCN(c2ccccc2)CC1
→ -0.9	1.44
> O=C(Oc1ccc(-c2nnco2)cc1)c1ccc2c(c1)S(=O)(=O)c1ccccc1C2=O
→ 1.3	x
> O=C(Cc1ccsc1)NCC1COc2ccccc2O1 (configuration not stated)
→ 0.3	x
> COc1ccc(CCNC(C)C(=O)Nc2ccc(S(N)(=O)=O)cc2)cc1 (configuration not stated)
→ -2.5	x
> CCC(C)Nc1nc(NC)nc(NC(C)CC)n1 (configuration not stated)
→ 0.5	-0.178
> O=c1[nH]c(O)c(C=Nc2nc3ccccc3nc2N2CCCC2)c(=O)[nH]1
→ 11.6	x
> COC(=O)c1c(C)nn(-c2ccc(F)c(Cl)c2)c1-c1cc(C)on1
→ -0.4	-0.797
> CC(C)CSc1nnc2sc3ccccc3n12
→ 0.6	x
> O=C(C1CC(=O)N(C2CCCC2)C1)N1CCC(c2nc3ccccc3s2)CC1 (configuration not stated)
→ -1.9	x

Remaining list, next part.
SMILES,BasE inh,LANA-nucl inh
CC1=NOC(=O)/C1=C\C=C/c1ccccc1,3.3,x
O=C(O)C1C2C=CC(C2)C1C(=O)N1CCc2c([nH]c3ccccc23)C1C(F)(F)F (configuration not stated),1.6,x
CN1CCN(c2c(C(=O)c3ccccc3)cnc3ccc(Cl)cc23)CC1,-1.5,-0.247
O=C(CSC1=NCCS1)N1CCN(c2ccc(Cl)cc2)CC1,-2.4,0.725
NC(=O)COc1ccc(S(=O)(=O)N2CCCC2)cc1Cl,1.1,-0.55
S=c1nc(C23CC4CC(CC(C4)C2)C3)[nH][nH]1,3.7,x
O=C1CN(C(=O)C2CC2)c2ccccc2N1,1.1,x
CCCCCCCCCCCCC/C=C/[C@@H](O)[C@H](CO)N(C)C,-2.8,-0.026
CCOC(=O)N1CCN(C(=O)C2CCN(c3nc4ccc(CC)cc4s3)CC2)CC1,-1.1,-0.0895
Cc1n[nH]c(=O)c2nc(-c3ccccc3)sc12,3.5,x
COc1ccc(C(=O)N[C@H](C(=O)N(C)Cc2ccc(N3CCCCC3)cc2)C(C)C)cc1,0.2,x
CCC(=O)Nc1ccccc1C(=O)OCC(=O)c1ccccc1,-1.0,0.033
CCOC(=O)c1c(-c2ccccc2)n(C)c2ccc(O)cc12,2.8,0.203
N#CCCN(CC1CCCO1)C(=S)Nc1ccc(F)cc1 (configuration not stated),-3.2,x
COc1ccc(C2CC2/C(C)=N/O)cc1 (configuration not stated),x,0.463
O=c1c2cccc3c2c(nn1CCN1CCCCC1)-c1ccccc1-3,-5.6,-0.162
O=C(c1ccc(F)cc1)C1CCN(CCn2c(=S)[nH]c3ccccc3c2=O)CC1,x,-0.589
CSC1=NC(C)(C)CCC12C=CC(=O)C=C2,0.6,-0.304
O=C(NCCN1CCCCC1)c1ccc(/C=N/O)nc1,1.1,-0.499
COc1cc(OC)c(NC(C)C(=O)Nc2cccc(C#N)c2)cc1Cl (configuration not stated),1.9,x
O=C(Cc1nc(-c2cccs2)no1)Nc1ccc(F)cc1,-1.2,-0.499
CC(COc1ccc2c(c1)OCO2)NC(=O)Cc1n[nH]c(=O)c2ccccc12 (configuration not stated),0.8,-1.91
OCCSc1nnc2c(n1)[nH]c1ccccc12,2.9,x
CCCn1c(N)c(C(=O)CN(C)Cc2ccc(CC)cc2)c(=O)n(C)c1=O,-0.8,x
CC(C)OC(=O)CCC1(C(=O)O)CCC(=O)NC1 (configuration not stated),1.9,0.545
O=C(Cn1cc(/C=C2/SC(=O)NC2=O)c2ccccc21)Nc1ccccc1,2.6,0.548

Single values from the list.
Under LANA-nucl inh, `CC(COc1ccc2c(c1)OCO2)NC(=O)Cc1n[nH]c(=O)c2ccccc12` (configuration not stated) reads -1.91
Under BasE inh, `OCCSc1nnc2c(n1)[nH]c1ccccc12` reads 2.9
Under BasE inh, `CCCn1c(N)c(C(=O)CN(C)Cc2ccc(CC)cc2)c(=O)n(C)c1=O` reads -0.8
Under BasE inh, `CC(C)OC(=O)CCC1(C(=O)O)CCC(=O)NC1` (configuration not stated) reads 1.9
Under BasE inh, `O=C(Cc1nc(-c2cccs2)no1)Nc1ccc(F)cc1` reads -1.2
Under BasE inh, `O=C(Cn1cc(/C=C2/SC(=O)NC2=O)c2ccccc21)Nc1ccccc1` reads 2.6
